Vaccinia inh: blocks a specific stage of Vaccinia orthopoxvirus infection, primary screen, cell-based, single point | Vaccinia-infected cells, mCherry/Venus stage reporter fluorescence; stronger effect = lower value; some inactives read as strong as hits | AID 1053133, 2014 | activity change (mCherry), % (test concentration not listed) | 89,000 compounds, 0.01% hits;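 active means mCherry past -33% and 40 or more points under the early reporter, replicates agreeing; inconclusive means past -33% without that gap or agreement; tested in A549 cells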;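 further: scaled between vehicle wells and reference inhibitor wells; 23 nL library stock went into each well; one replicate is shown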
Vaccinia inh Venus: further read-out of Vaccinia inh, marked with its call; activity change (Venus), %; measured here: Venus reporter, other viral stage;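 negative = less Venus signal; first of two replicates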
The depositor's hits bear a star; ? = inconclusive; . = not tested or not shown; & = joins results of further samples. Only part of the results is shown. The share of hits here may be higher or lower than overall.

SMILES	Vaccinia inh	Vaccinia inh Venus
CO[C@@H]1CN(C)C(=O)c2ccc(NC(C)=O)cc2OC[C@@H](C)N(Cc2ccccn2)C[C@H]1C	16	8
C[C@H]1CN([C@@H](C)CO)C(=O)c2cc(NC(=O)Nc3ccc4c(c3)OCO4)ccc2O[C@H]1CN(C)Cc1ccc(Oc2ccccc2)cc1	-14	-7
CC(C)(C)[C@H]1C=C(C(=O)NC2CC2)O[C@@H](OCc2ccc(CO)cc2)C1	13	3
C[C@@H]1CN([C@@H](C)CO)C(=O)Cc2cc(NS(=O)(=O)c3cn(C)cn3)ccc2O[C@H]1CN(C)CC1CCCCC1	-9	-5
COc1cccc(-c2ccc(CC[C@H]3O[C@H]4CC[C@@H](CO)O[C@H]4C[C@H]3NS(C)(=O)=O)cc2)c1	-14	2
O=C(Nc1ccccc1F)N[C@@H]1CC[C@@H](CCNS(=O)(=O)c2ccccc2)O[C@H]1CO	-3	-1
CCC(=O)N1CC(=O)N2[C@H](CO)[C@H](c3ccc(C#CCc4ccccc4)cc3)[C@H]2C1	-11	-11
COc1ccc(C#Cc2ccc([C@H]3[C@H](CO)N4CCCCN(C(=O)Nc5ccccc5)C[C@@H]34)cc2)cc1	?	.
O=C(Cc1ccccn1)N[C@@H]1CC[C@H](CC(=O)N2CCCCC2)O[C@H]1CO	8	9
C[C@@H]1CCCCO[C@H](CN(C)S(=O)(=O)c2ccc(Cl)cc2)[C@@H](C)CN([C@H](C)CO)C(=O)c2cc(NC(=O)CCCN(C)C)ccc2O1	16	14
CN1C(=O)c2cc(NS(=O)(=O)c3ccccc3F)ccc2OC[C@H]2O[C@@H](CC(=O)NC3Cc4ccccc4C3)CC[C@@H]21	-2	-1
COCC(=O)N(C[C@H]1N[C@H](CO)[C@@H]1c1ccc(-c2ccccc2)cc1)C(C)C	-11	-4
CC(C)CC#Cc1cnc2c(c1)C(=O)N([C@@H](C)CO)C[C@H](C)[C@@H](CN(C)Cc1ccc3c(c1)OCO3)O2	?	.
C[C@H]1CN([C@@H](C)CO)C(=O)c2cc(Br)cnc2O[C@@H]1CN(C)Cc1ccc2c(c1)OCO2	14	7
C[C@@H]1CN([C@@H](C)CO)C(=O)c2cc(NC(=O)Nc3ccccc3)ccc2O[C@H]1CN(C)Cc1ccncc1	3	4
C[C@H](CO)N1C[C@H](C)[C@H](CN(C)C(=O)Nc2cc(F)ccc2F)Oc2cc(/C=C/c3ccccc3)ccc2S1(=O)=O	-35	-23
C[C@H]1CN([C@@H](C)CO)C(=O)Cc2cc(NC(=O)Nc3ccc4c(c3)OCO4)ccc2O[C@@H]1CN(C)Cc1ccc(C(=O)Nc2ccccc2N)cc1	8	8
C[C@@H]1CN([C@H](C)CO)C(=O)CCCn2nncc2CO[C@@H]1CN(C)S(=O)(=O)c1ccc2c(c1)OCCCO2	13	21
C=CCNC(=O)[C@@H]1[C@H]2C(=O)O[C@H](c3ccccc3)[C@H](c3ccccc3)N2[C@H](c2ccccc2OCCO)[C@@]12C(=O)Nc1ccc(C#Cc3ccc(OC)cc3)cc12	-8	-3
COc1ccc2c3c(n(C)c2c1)[C@@H](CO)N(C(=O)CN(C)C)CC31CCN(C(=O)CN(C)C)CC1	4	0
O=C(CC1CC1)N1CC(=O)N2[C@H](C1)[C@H](c1ccc(-c3cccnc3)cc1)[C@@H]2CO	48	24
O=C(NCC[C@@H]1CC[C@H](NC(=O)c2ccccc2F)[C@@H](CO)O1)c1ccc2c(c1)OCO2	4	4
Cc1noc(C)c1NC(=O)N(C)C[C@H]1OCCCC[C@@H](C)Oc2ccc(NS(=O)(=O)c3ccccc3)cc2C(=O)N([C@H](C)CO)C[C@@H]1C	31	12
C[C@@H]1CN([C@@H](C)CO)C(=O)c2cc(NC(=O)c3ccncc3)ccc2O[C@@H]1CN(C)C	5	5
C[C@H]1CN([C@@H](C)CO)C(=O)c2ccccc2-c2ccccc2CO[C@H]1CN(C)Cc1ccncc1	6	5
C[C@@H]1CN([C@@H](C)CO)C(=O)Cc2cc(NC(=O)Cc3cn(C)c4ccccc34)ccc2O[C@H]1CN(C)Cc1ccncc1	-21	-18
CS(=O)(=O)N1[C@H](C#N)[C@@H](c2ccc(-c3ccccc3F)cc2)[C@H]1CO	6	2
O=C(C[C@@H]1C[C@@H]2c3cc(NC(=O)NC4CCCCC4)ccc3O[C@@H]2[C@@H](CO)O1)NCc1ccccn1	2	3
CNC[C@@H]1Oc2ccc(NC(=O)C3CC3)cc2C(=O)N([C@@H](C)CO)C[C@H]1C	10	4
C[C@H](CO)N1C[C@H](C)[C@H](CN(C)Cc2ccc3c(c2)OCO3)OCc2ccccc2-c2c(n(C)c3ccccc23)C1=O	?	.
O=C(C[C@@H]1CC[C@@H]2[C@H](COC[C@H](O)CN2Cc2cccc(Cl)c2)O1)N1CCCCC1	0	-1
C[C@H]1CN([C@@H](C)CO)C(=O)c2cc(-c3cccnc3)cnc2O[C@H]1CN(C)C(=O)C1CCC1	9	11
C[C@H](CO)N1C[C@H](C)[C@H](CN(C)Cc2ccc3c(c2)OCO3)Oc2ncc(/C=C/c3ccccc3)cc2C1=O	-33	-32
O=C(C[C@H]1C[C@@H]2c3cc(NC(=O)NC4CCCCC4)ccc3O[C@@H]2[C@H](CO)O1)NCc1cccnc1	2	-2
CC(=O)N1[C@H](CO)[C@H]2c3ccccc3N(S(=O)(=O)c3ccccc3C)C[C@H]21	16	16
CCN1[C@@H]2Cn3c(ccc(-c4ccccc4)c3=O)[C@H]1[C@@H](C(=O)NCc1ccccc1)[C@@H]2CO	0	-2
COc1ccccc1NC(=O)N1CCCCN2[C@@H](CO)[C@@H](c3ccc(C#CC4CC4)cc3)[C@@H]2C1	?	.
Cn1cnc(S(=O)(=O)N[C@H]2CC[C@@H](CC(=O)NCC3CC3)O[C@H]2CO)c1	1	-3
COc1ccc(NC(=O)N(C)C[C@H]2Oc3c(NC(=O)CCCCCC(=O)Nc4ccccc4N)cccc3C(=O)N([C@H](C)CO)C[C@H]2C)cc1	-7	4
CC(C)NC(=O)N(C)C[C@H]1OCCCC[C@H](C)Oc2ccc(NC(=O)Cc3ccccc3)cc2C(=O)N([C@H](C)CO)C[C@H]1C	8	-1
C[C@@H]1CCCCO[C@@H](CN(C)CC2CCCCC2)[C@H](C)CN([C@@H](C)CO)C(=O)c2cc(NC(=O)c3ccccc3)ccc2O1	?	.
CO[C@@H]1CN(C)C(=O)c2ccc(NC(=O)Nc3ccccc3)cc2OC[C@H](C)N(CC2CC2)C[C@@H]1C	-5	-1
C[C@H]1CN([C@@H](C)CO)C(=O)c2cc(NS(C)(=O)=O)ccc2O[C@@H]1CN(C)C(=O)Nc1cccc2ccccc12	19	10
CCC(=O)NC[C@H]1[C@@H](c2ccc(-c3ccccc3)cc2)[C@H](CO)N1C(=O)C1CC1	3	8
CN1C(=O)c2cc(NC(=O)c3ccc(F)cc3)ccc2OC[C@H]2O[C@@H](CC(=O)NC3CCC3)CC[C@@H]21	5	12

A draw from above in order of count of non-hydrogen atoms, ascending:
SMILES	Vaccinia inh	Vaccinia inh Venus
Cn1cnc(S(=O)(=O)N[C@H]2CC[C@@H](CC(=O)NCC3CC3)O[C@H]2CO)c1	1	-3
CCC(=O)NC[C@H]1[C@@H](c2ccc(-c3ccccc3)cc2)[C@H](CO)N1C(=O)C1CC1	3	8
O=C(C[C@@H]1CC[C@@H]2[C@H](COC[C@H](O)CN2Cc2cccc(Cl)c2)O1)N1CCCCC1	0	-1
CO[C@@H]1CN(C)C(=O)c2ccc(NC(=O)Nc3ccccc3)cc2OC[C@H](C)N(CC2CC2)C[C@@H]1C	-5	-1
CC(C)NC(=O)N(C)C[C@H]1OCCCC[C@H](C)Oc2ccc(NC(=O)Cc3ccccc3)cc2C(=O)N([C@H](C)CO)C[C@H]1C	8	-1
COc1ccc(NC(=O)N(C)C[C@H]2Oc3c(NC(=O)CCCCCC(=O)Nc4ccccc4N)cccc3C(=O)N([C@H](C)CO)C[C@H]2C)cc1	-7	4

The results go on:
SMILES	Vaccinia inh	Vaccinia inh Venus
CCC(=O)Nc1ccc2c(c1)C(=O)N(C)[C@H]1CC[C@@H](CC(=O)N[C@H](C)c3ccccc3)O[C@H]1CO2	4	8
COc1ccc(-c2ccc3n(c2=O)C[C@H]2[C@H](CO)[C@@H](C(=O)NC4Cc5ccccc5C4)N[C@@H]32)cc1	-6	-2
C[C@H]1CN([C@@H](C)CO)C(=O)c2cc(NS(=O)(=O)c3cn(C)cn3)ccc2O[C@H]1CN(C)CC1CC1	15	3
CC(C)NC(=O)N(C)C[C@@H]1OCc2cn(nn2)CCCC(=O)N([C@H](C)CO)C[C@@H]1C	6	12
COc1cccc(S(=O)(=O)N[C@H]2CC[C@H](CC(=O)NCc3ccc(Cl)cc3)O[C@H]2CO)c1	-10	1
C[C@@H]1CN([C@@H](C)CO)C(=O)c2cc(NC(=O)c3ccncc3)ccc2O[C@H]1CN(C)Cc1ccccc1	-4	2
Cc1noc(C)c1NC(=O)Nc1ccc2c(c1)CC(=O)N([C@H](C)CO)C[C@@H](C)[C@@H](CN(C)C)O2	5	1
N#C[C@H]1[C@H](c2ccccc2)[C@@H](CO)N1C(=O)C1CCCC1	11	8
O=C(C[C@@H]1C=C[C@@H](NC(=O)C2CC2)[C@H](CO)O1)NCCCN1CCOCC1	13	11
O=C(c1cccnc1)N1C[C@H]2[C@@H](c3ccccc31)[C@H](CO)N2C(=O)Nc1ccccc1	35	21
C[C@@H]1CN([C@H](C)CO)C(=O)c2cc(NS(C)(=O)=O)ccc2O[C@@H](C)CCCCO[C@@H]1CN(C)C(=O)c1ccncc1	126	109
CN(C)C(=O)C[C@@H]1CC[C@@H]2[C@H](COc3ccc(NC(=O)C4CCOCC4)cc3C(=O)N2C)O1	21	16
COc1ccc(CN(C)C[C@H]2Oc3c(NC(=O)NC4CCCCC4)cccc3C(=O)N([C@@H](C)CO)C[C@H]2C)cc1	-15	-7
CN(C)CC(=O)N[C@@H]1CC[C@@H](CCNC(=O)C2CCCCC2)O[C@@H]1CO	5	7
C[C@@H]1CN([C@H](C)CO)C(=O)Cc2cc(NC(=O)Nc3cccc4ccccc34)ccc2O[C@H]1CN(C)C(=O)Nc1ccc(F)cc1	7	14

One compound at a time, from the list above:
Results for C[C@H]1CN([C@@H](C)CO)C(=O)c2cc(NS(=O)(=O)c3cn(C)cn3)ccc2O[C@H]1CN(C)CC1CC1 = Vaccinia inh: 15; Vaccinia inh Venus: 3
Results for C[C@@H]1CN([C@@H](C)CO)C(=O)c2cc(NC(=O)c3ccncc3)ccc2O[C@H]1CN(C)Cc1ccccc1 = Vaccinia inh: -4; Vaccinia inh Venus: 2

The results go on:
SMILES	Vaccinia inh	Vaccinia inh Venus
COc1cccc(NC(=O)C[C@H]2CC[C@@H]3[C@@H](COc4ccc(NC(=O)C5CCOCC5)cc4C(=O)N3C)O2)c1	0	7
C[C@@H]1CCCCO[C@@H](CN(C)C(=O)CCCN(C)C)[C@@H](C)CN([C@H](C)CO)C(=O)c2cc(NC(=O)NC3CCCCC3)ccc2O1	18	3
C[C@H](CO)N1C[C@H](C)[C@H](CN(C)C(=O)Nc2ccc(-c3cccs3)cc2)OCc2cnnn2CCCC1=O	-2	9
Cc1ccc(S(=O)(=O)Nc2ccc3c(c2)CC(=O)N([C@H](C)CO)C[C@H](C)[C@H](CN(C)Cc2ccccc2)O3)cc1	?	.
COc1ccc2c3c([nH]c2c1)[C@@H](CO)N(S(=O)(=O)c1cn(C)cn1)CC31CCN(CC2CC2)CC1	5	-1
C[C@H]1CN([C@@H](C)CO)C(=O)c2cccc(NC(=O)c3ccc(-c4nccs4)cc3)c2O[C@H]1CN(C)C(=O)Nc1ccc(F)cc1	14	6
C[C@H]1CN([C@@H](C)CO)C(=O)c2cc(/C=C/c3ccccc3)cnc2O[C@@H]1CN(C)C(=O)c1cccc(F)c1	-29	-21
COc1ccc2c3c([nH]c2c1)[C@H](CO)N(C(=O)Nc1ccc(F)cc1)CC31CN(C(=O)Nc2ccccc2)C1	-12	-8
Cc1ccc(S(=O)(=O)N2[C@@H]3CNC[C@H]2C3c2ccc(-c3cccnc3)cc2)cc1 (stereo not given in full)	-20&-4	-7&-9
O=C(Cc1cccnc1)N1CC2(C1)[C@H](c1ccccc1)[C@H](CO)N2C(=O)C1CCCC1	5	14
C[C@H]1CCCCO[C@H](CN(C)C(=O)CCC(F)(F)F)[C@@H](C)CN([C@@H](C)CO)C(=O)c2cc(NS(=O)(=O)c3ccc(F)cc3)ccc2O1	-4	0
C[C@@H]1CN([C@@H](C)CO)S(=O)(=O)c2ccc(-c3ccc(C#N)cc3)cc2O[C@@H]1CN(C)C(=O)CN(C)C	1	5
COc1ccc(C#Cc2ccc([C@@H]3[C@@H](CO)N4C(=O)CN(C(=O)C5CCOCC5)C[C@@H]34)cc2)cc1	?	.
CN(C)C(=O)c1ccc(-c2ccc([C@@H]3[C@@H](CO)N4CCCCN(CCC(F)(F)F)C[C@@H]34)cc2)cc1	9	-11
O=C(O)C[C@@H]1C[C@H]2c3cc(NC(=O)Nc4ccc(C(F)(F)F)cc4)ccc3O[C@H]2[C@@H](CO)O1	11	5
CCCC(=O)Nc1ccc2c(c1)C(=O)N(C)[C@@H]1CC[C@H](CC(=O)NCCCN(C)C)O[C@@H]1CO2	7	9
CO[C@H]1CN(C)C(=O)c2cc(NS(=O)(=O)c3ccc(C)cc3)ccc2OC[C@H](C)NC[C@@H]1C	-7	1
C[C@@H]1CN([C@H](C)CO)S(=O)(=O)c2ccc(C#C[C@@H](C)O)cc2O[C@@H]1CN(C)C(=O)c1ccncc1	5	-3
COc1ccc(-c2ccc([C@@H]3[C@@H](CO)N4C(=O)CN(C(=O)C5CCC5)C[C@@H]34)cc2)cc1	-17	-11
COCCNC(=O)[C@@H]1[C@@H](CO)[C@@H]2Cn3c(cccc3=O)[C@H]1N2Cc1cccc(Cl)c1	18	20
C[C@@H]1CN([C@H](C)CO)S(=O)(=O)c2ccc(C3=CCCCC3)cc2O[C@H]1CN(C)Cc1cccnc1	?	.

Screening data deposited in PubChem BioAssay by Broad Institute.
